# Six1-Eya2 blk = qHTS Assay for Inhibitors of the Six1/Eya2 Interaction. AlphaScreen GST-Six1/His-Eya2 binding, biochemical; stronger effect = lower value; control for the full effect not named in the record. activity change, % (concentration not given with the values). 360,000 compounds, 0.56% hits. Homeobox protein SIX1 (Homo sapiens) + Protein phosphatase EYA2 (Homo sapiens), …; in the data active = activity change below about -65%; inconclusive = about -30% to -65%; inactive = above about -30%; further: on the % scale 0 is the no-effect control and ±100 the full control effect
# Target sequence (O00167 whole entry, looked up): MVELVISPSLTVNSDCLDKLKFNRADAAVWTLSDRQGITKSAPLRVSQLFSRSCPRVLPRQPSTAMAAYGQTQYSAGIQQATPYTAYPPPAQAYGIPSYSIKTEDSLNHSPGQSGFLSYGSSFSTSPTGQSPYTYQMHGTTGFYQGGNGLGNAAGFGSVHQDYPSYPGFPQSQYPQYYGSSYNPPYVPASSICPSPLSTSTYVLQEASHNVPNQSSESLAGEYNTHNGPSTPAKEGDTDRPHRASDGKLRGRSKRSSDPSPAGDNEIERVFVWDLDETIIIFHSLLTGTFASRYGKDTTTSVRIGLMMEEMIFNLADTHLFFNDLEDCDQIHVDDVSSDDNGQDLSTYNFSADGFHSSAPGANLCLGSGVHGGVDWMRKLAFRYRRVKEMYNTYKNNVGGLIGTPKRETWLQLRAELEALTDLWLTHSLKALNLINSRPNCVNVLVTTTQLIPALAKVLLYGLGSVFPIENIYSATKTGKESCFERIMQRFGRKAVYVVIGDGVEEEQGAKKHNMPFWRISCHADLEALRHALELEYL
# Target sequence (Q15475 whole entry, looked up): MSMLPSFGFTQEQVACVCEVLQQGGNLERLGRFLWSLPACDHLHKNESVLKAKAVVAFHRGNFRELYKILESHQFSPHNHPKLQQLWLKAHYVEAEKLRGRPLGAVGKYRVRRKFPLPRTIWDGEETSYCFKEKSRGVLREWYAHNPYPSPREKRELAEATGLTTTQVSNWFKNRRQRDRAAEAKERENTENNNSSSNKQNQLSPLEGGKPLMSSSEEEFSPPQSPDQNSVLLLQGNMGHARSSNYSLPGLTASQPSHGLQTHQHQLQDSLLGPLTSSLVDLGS
#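 Six1/Eya2 binding was read as AlphaScreen signal after compounds were pinned into GST-Six1 plus His-tagged Eya2 (5X stock 250/500 nM) in pH 8.0 Tris/NaCl/TCEP buffer, beads added, then incubated 1 h, 37 C, dark.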
# TRPML1 ag = qHTS for Agonists of the Human Mucolipin Transient Receptor Potential 1 (TRPML1). Mucolipin-1 (Homo sapiens), Q9GZU1. TRPML1-expressing cells, Ca2+ dye fluorescence, FDSS; host cell line not named in the record; reference of the full effect not given here. activation, % (concentration not given with the values). 410,000 compounds, 0.12% hits; in the data active = activation above about 50%; inconclusive = about 30% to 50%; inactive = below about 30%; further: 0% is about no effect; the text of the record puts the active cut at 80%
#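 Calcium fluorescence on an FDSS kinetic reader gave the read-out. Tet-induced TRPML1-DL cells were plated overnight, dye-loaded (Ca8 with quencher, 45-90 min, room temperature, dark), then read 110 s after compound addition, and again 110 s after 4uM final 54-4 (EC80).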
# TRPML1 inh = qHTS for Inhibitors of the Human Mucolipin Transient Receptor Potential 1 (TRPML1). Mucolipin-1 (Homo sapiens), Q9GZU1. TRPML1-inducible cells, Ca2+ dye fluorescence, FDSS; stronger effect = lower value; inhibition of EC80 agonist-evoked calcium signal. activity change, negative = inhibition, % (test concentration not listed). 390,000 compounds, 0.02% hits; in the data active means activity change below about -50%; inconclusive means about -30% to -50%; inactive means above about -30%;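 further: stimulus is agonist 54-4 at its EC80 concentration; on the % scale 0 is the no-effect control and ±100 the full control effect; compound concentration not given in the record; the text of the record puts the active cut at -80%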
#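 TRPML1-DL cells, Tet-induced overnight (~16 h, 37 °C) at 1,500 cells/well, were loaded with Ca8 no-wash dye plus quencher for 45-90 min at room temperature. Compounds were pinned during FDSS kinetic reading; agonist 54-4 at EC80 (4 uM final) then added.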
# D2 agonist = Beta-Arrestin HTS for Positive Allosteric Modulators of the Human D2 Dopamine Receptor: Agonists; D(2) dopamine receptor (Homo sapiens), P14416; DiscoveRx PathHunter D2 beta-arrestin, luminescence, 90 min; 100% = 57 uM dopamine signal; activation, % (test concentration not listed); 360,000 compounds, 0.084% hits; AID 624465, 2012; in the data active = activation above about 40%; inconclusive = about 15% to 40%; inactive = below about 15%; further: compound concentration not given in the record; the text of the record calls up to 30% inactive
#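 DiscoveRx PathHunter D2 beta-arrestin cells (2,100/well) attached overnight, then compound-stimulated 90 min at 37 C in HBSS/10 mM HEPES/0.1% Tween-20 buffer; beta-galactosidase complementation read by luminescence after 1 h at ambient temperature. Dopamine 57 uM final (EC100) as control.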
# D2 potentiator = Beta-Arrestin HTS for Positive Allosteric Modulators of the Human D2 Dopamine Receptor: Potentiators. DiscoveRx D2 beta-arrestin cells, luminescence, 90 min; 100% = 57 uM dopamine signal. D(2) dopamine receptor (Homo sapiens), P14416. potentiation, % (test concentration not listed). 360,000 compounds, 0.23% hits; active = potentiation of 50% or more; inconclusive = 30% to 50%; inactive = 30% or less;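 further: compound concentration not given in the record; tested on top of an EC20 dose of dopamine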
#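 PathHunter D2 cells, attached overnight at 37 deg C, received compound in DMSO plus dopamine at EC20 (50 nM final) for 90 min at 37 deg C. Beta-arrestin recruitment was read as luminescence after 1 h with detection reagent at ambient temperature.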
# PINK1 expr mod = A Quantitative High throughput Screen to Identify Chemical Modulators of PINK1 Expression. PINK1 immunofluorescence, high-content cytometry, 24 h. Potency, µM (doses to about 76.6 µM), inactives show at the top dose activation (PINK1 increase), most hits filed as activators. 410,000 compounds, 0.2% hits. AID 624263, 2012; active = well fitted activation curve with a large enough effect; inconclusive = small, poorly fitted or top-dose-only effect; inactive = flat fitted curve, though single readings scatter; cell line not stated here;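 further: potency means the concentration at half of the fitted maximal effect; % of control where 0% means no effect; nearly all actives have a fitted effect of over 65% in size; a mitochondrial uncoupler was the plate control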
#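 Compound titrations (5 concentrations, 24 h) on a stable cell line; DMSO and CCCP controls. Endpoint: fixed-cell PINK1 immunofluorescence with mitochondrial, cell and nuclear markers, scanned by microplate cytometer.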
# The depositor's hits bear a star; ? = inconclusive; . = not tested or not shown; & = joins results of further samples; [ ] = another dose, or the depositor's remark.
SMILES,Six1-Eya2 blk,TRPML1 ag,TRPML1 inh,D2 agonist,D2 potentiator,PINK1 expr mod
Cc1cc(C)cc(NC(=O)C(Cc2ccccc2)NS(=O)(=O)c2ccc3c(c2)c(=O)n(C)c(=O)n3C)c1 (configuration not stated),.,0.3,22,.,.,0.2%
O=C(Nc1ccc(Cl)cc1)Nc1ccccc1CC[N+](=O)[O-],-1,2.0,1,0.2,-3,5.9%
O=C(Nc1ccc(-c2nc3ccccc3o2)cc1)c1ccc(N2CCOCC2)c([N+](=O)[O-])c1,18,0.8,15,3.0,18,?
Cc1ccc(C)c(NS(=O)(=O)c2ccc3oc(=O)ccc3c2)c1,-5,-0.9,4,3.7,-2,0.6%
CCCCc1c(C)nc2c(-c3ccc(Cl)cc3)c(C)[nH]n2c1=O,.,0.2,-3,.,.,-0.6%
Clc1ccc(N=c2ssnc2Cl)cc1,7,-0.1,-4,-1.6,-8,12%
O=C(/C=C/Nc1ccc(Br)cc1F)c1ccco1,1,-0.5,5,-0.4,-8,2.3%
Cc1nc(CSc2ccccc2)cc(=O)[nH]1,-1,0.9,3,-4.9,-3,0.4%
Cc1cc(C)c(/C=N/NC(=O)c2nnn(-c3nonc3N)c2CN2CCC(C)CC2)c(C)c1,-11,3.6,-10,2.4,-5,13%
Cc1oc(-c2cccc(Cl)c2)nc1CN1CCC(C(=O)NC(C)c2ccccc2)CC1 (configuration not stated),.,-0.2,-11,.,.,0.3%
Cc1cc2nc(C3CCN(Cc4nnnn4Cc4cccs4)CC3)[nH]c2cc1C,-2,1.2,7,-1.7,-16,0.4%[38.3 µM]
CCS(=O)(=O)n1nc(-c2ccco2)nc1NCc1ccc(C(C)C)cc1,.,1.8,6,.,.,2.0%
C=CC[C@@H](CC(=O)NCCO)C(=O)N[C@@H](COC(=O)[C@@H](CC=C)CC(=O)OC(C)(C)C)Cc1ccccc1,3,-0.2,-3,-5.8,-4,1.0%
COC(=O)Nc1ccc(S(=O)(=O)Nc2cc(OC)nc(OC)n2)cc1,-7,-0.5,-10,1.7,-24,1.1%
Cc1cc(C)cc(-n2ncc3c2CCCC3NC(=O)CCN2Cc3ccccc3C2=O)c1 (configuration not stated),-7,0.6,2,0.1,-6,0.4%
Cn1c(=O)c2nc(NCc3ccccc3)sc2n(C)c1=O,-25,-0.8,2,-7.8,2,1.3%
CC1CC(C)CN(C(=O)c2ccncc2)C1 (configuration not stated),2,0.1,-3,-3.7,-10,-0.1%
Cc1ccc(C(=O)Sc2cccccc2=O)cc1,-77*,1.9,-6,-7.5,-15,-2.3%
O=C(CCl)N1N=C(c2ccco2)CC1c1ccco1 (configuration not stated),?,1.5,3,3.0,-5,5.7%
Cc1nc2ccccc2nc1N1CCOCC1,3,-0.9,54,-7.4,15,-2.6%
CCCCOC(=O)c1ccc(NC(=O)C(=O)NCc2ccncc2)cc1,-8,-0.3,2,-1.6,-1,10%
COc1ccccc1CNC1CCN(Cc2ccccc2)CC1,19,0.6,-11,-3.5,-14,-0.5%
OC(COCc1ccc2c(c1)OCO2)CN1CCN(Cc2ccccc2)CC1 (configuration not stated),21,-1.1,-12,-2.1,-33,-1.4%
COc1ccc(NC(=O)CCNC(=O)Cn2cnc3sc4c(c3c2=O)CCCC4)c(OC)c1,5,-0.3,-27,-1.1,-2,1.3%
Cc1cc2c(c(C#N)c1C)NC=NC2C (configuration not stated),-9,0.5,11,-8.7,-17,0.2%
CCCCCCCCN1N=N[C@H]2[C@H]1[C@@H]1C[C@H]2N(C(=O)OC(C)(C)C)O1,17,0.0,6,5.2,.,3.6%
O=C(Nc1ccccc1Cl)O/N=C/c1ccncc1,5,0.6,11,-1.5,-29,.
CCN(CC(=O)Nc1ccc2c(c1)OCCO2)C(=O)c1cccc(S(=O)(=O)N2CCOCC2)c1,3,0.0,3,-2.4,-15,1.1%
COC(=O)c1c(-c2ccc(N(C)C)cc2)sc2ccc(OC)cc12,42,1.7,25,-0.4,-3,1.6%
COc1ccc(C(=O)COC(=O)CCCC(=O)NC2CCCCC2)cc1,0,-0.3,5,1.5,-10,-0.6%
Cc1cc(C(=O)NCCCn2ccnc2)cs1,2,0.7,3,-1.9,2,10µM*
CCOC(=O)c1c(C)oc(C)c(C(=O)OCC)c1=O,-2,0.2,-5,-2.6,-5,1.2%
Cc1ccc(-c2nc(C)sc2CC(=O)Nc2nnc(C)s2)cc1,5,0.4,-11,8.3,-14,3.0%
O=C(C1COc2ccccc2O1)N(Cc1cccnc1)c1nc2ccc(Cl)cc2s1 (configuration not stated),.,1.1,-15,.,.,5.0%
O=C(Nc1ccc(Cl)cc1)Nc1cc(S(=O)(=O)N2CCOCC2)ccc1N1CCCC1,-21,-0.3,8,-1.5,-1,2.9%
COC(=O)CNC(=O)C1CCN(S(=O)(=O)c2cccc3nsnc23)CC1,-2,1.2&-0.8,100&-24,-6.7,-2,-1.2%&-0.6%
O=CNc1cc(-c2cccc(O)c2)cn2c(-c3ccc(F)cc3)cnc12,-7,-0.7,.,-2.1,-1,1.1%
Cc1ccc2nc(/C(C#N)=C/c3cccc(Br)c3)[nH]c2c1,.,0.2,6,.,.,5.7%
O=c1[nH]c(O)c(N=Nc2ccc(Cl)c(S(=O)(=O)Nc3ccccc3Cl)c2)c(=O)[nH]1,?,2.1,30,-6.3,-8,0.3%
COc1cc(NC(=O)c2ccc(CNc3c(N4CCCC4)c(=O)c3=O)cc2)cc(OC)c1OC,-15,0.5,-12,-1.0,-1,-1.4%
O=c1[nH]c2c(c(=O)n1-c1ccccc1)CCO2,12,1.0,18,4.3,-17,-0.8%
COc1cc(C(=O)O/N=C2/C=C(C)C(=O)C=C2C)cc(OC)c1OC,2,-0.6,10,?,2,0.8%
Cc1ccn2c(C(=O)CSc3ccc(Cl)cc3Cl)c(C)nc2c1,10,-0.5,4,-1.4,4,-1.1%
CC(=O)Nc1cc2c(cc1Cl)Cc1cc(Cl)ccc1-2,3,1.9,-3,-2.1,-1,-2.5%
O=C(CSc1nnc2ccccn12)NCc1ccco1,3,1.1,-17,-5.1,-10,0.1%
Cc1cc(/C=N/NC(=O)C(O)(c2ccccc2)c2ccccc2)c(C)n1-c1ccc(C(=O)O)cc1,-1,2.5,1,-0.4,-6,0.0%
COc1ccc(-n2ccnc2CN2CCCC(CO)(Cc3cccc(OC)c3)C2)cc1 (configuration not stated),16,1.5,-14,-6.8,-1,-0.6%
CCn1cc2nc(SCc3ccc(F)cc3)n(CCc3ccccc3)c(=O)c2n1,.,0.7,15,.,.,16%
COc1cccc(N2CCN(c3ccc([N+](=O)[O-])cn3)CC2)c1,2,1.7,29,3.7,5,4.2%
Cc1cccn2c(=O)c(C=O)c(Cl)nc12,-4,-0.6,-7,-6.3,-15,1.6%
COc1cc(/C=N/Nc2nc(C)cc(C)n2)ccc1O,-19,-0.8,-7,-1.0,-2,-0.4%
Cc1cc(C)c(NC(=S)N(CCN(C)C)Cc2cccs2)c(C)c1,-11,0.0,28,-0.8,-11,-0.7%
CCC(C(=O)OCC(=O)c1ccc(OC)cc1OC)c1ccccc1 (configuration not stated),15,1.1,-3,-4.7,-1,0.9%
CC1CCN(S(=O)(=O)c2ccc3c(c2)oc(=O)n3CC(=O)O)CC1,.,1.7,18,.,.,0.1%
O=C(CN1C(=O)NC2(CCCCCCC2)C1=O)NCc1cccs1,5,0.2,5,-3.3,-2,-1.6%
Cc1cccnc1NC(=O)C1CCC1,-7,0.5,24,3.7,-4,1.3%
Cc1ccc(NC(=O)c2cc([N+](=O)[O-])ccc2NCc2cccnc2)cc1,-15,0.4,-1,-4.3,-9,2.0%[38.3 µM]
Cc1c(C(=O)NCc2ccccn2)oc2ccc(S(=O)(=O)N3CCC4(CC3)OCCO4)cc12,-21,-0.2,6,1.6,-6,0.3%
CSc1ccc(C(=S)N2CCCC2)cc1,-5,0.1,-15,-4.9,-3,1.1%
CC(=O)Nc1ncc(Cc2ccc(Cl)cc2Cl)s1,5,1.1,6,-2.2,-7,4.6%

# Next entries:
SMILES,Six1-Eya2 blk,TRPML1 ag,TRPML1 inh,D2 agonist,D2 potentiator,PINK1 expr mod
O=c1[nH]c(=O)n(Cc2ccco2)c2c1C(C(F)(F)F)(C(F)(F)F)N=C(Cc1ccccc1)N2,-3,0.4,-7,-1.9,-11,2.8%
CC1C(=O)C(C)C(c2ccco2)NC1c1ccco1 (configuration not stated),1,-0.1,-5,-0.8,-10,3.3%[38.3 µM]
Cc1ccc(N2NC(=O)/C(=C/c3ccc(-c4ccc(Cl)c(C(=O)O)c4)o3)C2=O)cc1C,6,-0.6,15,-6.2,-4,0.9%
CCCC(=O)Nc1ccc2c(c1)nc(CCN1CCN(c3ccccn3)CC1)n2C,5,0.4,0,7.7,-10,4.1%
C[C@H]1CN([C@@H](C)CO)C(=O)CCCn2nncc2CO[C@H]1CN(C)S(C)(=O)=O,-4,.,.,-2.0,.,1.4%
O=C(CN1C(=O)NC2(CCc3ccccc32)C1=O)Nc1ccc(Br)cc1F (configuration not stated),-24,-0.2,14,7.4,-10,-0.7%
S=c1[nH]nc(-c2ccc3ccccc3n2)n1-c1ccccc1Cl,-17,-0.2,16,-6.6,-3,-0.6%
O=C(CSc1nnnn1-c1ccc(F)cc1)Nc1ccccc1F,-5,0.4,22,0.4,-6,6.9%
Cc1cc(NC(=O)CSc2nccn2-c2cccc(F)c2)no1,0,1.3,10,0.1,-6,-4.0%
COc1ccc(CCC(=O)Nc2nnc(C(F)(F)F)s2)cc1,9,0.7,-11,4.0,4,1.6%
O=C(O)CC(c1cccc(O)c1)N1Cc2ccccc2C1=O (configuration not stated),3,0.3,19,-1.5,-2,2.5%
N#CC1=C(N)Oc2n[nH]c(-c3cccs3)c2C1c1ccncc1 (configuration not stated),-9,-0.7,12,-4.3,-8,-0.5%
